Assay outcomes: PubChem, several laboratories
A1 inh: inhibitors of the anti-apoptotic protein A1, read as caspase activation | MEF A1-2A-BIM cells, Caspase-Glo 3/7 luminescence, 3 h; percent of clofoctol response, vehicle zero | caspase activation, % (no concentration beside the values) | 330,000 tested, 0.066% active | AID 2462;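 active means over half of replicate activation scores above 10%, or exactly half above 10 with the replicate mean above 10; inconclusive means replicate mean below 10 yet half the replicates above 10; inactive means over half of replicates below 10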;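 further: wells of about 30 µL received 50 nL stock; many hits fall short of the cut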
Beta2AR agonist: human beta-2 adrenergic receptor agonism by FAP; P07550; Am2.2-beta2AR cells, FAP receptor internalization, flow cytometry; reference of the scale not given here; response, % (no concentration beside the values); 340,000 tested, 0.43% active; AID 504454;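 active means response above a set limit, near 3 SD of response in nonfluorescent compounds, cut at about 42% in these data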;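 further: stock transfer was 100 nL into about 11 µL; a reference agonist was the positive control; negative values mostly stem from fluorescent compounds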
Target sequence (P07550 whole entry, looked up): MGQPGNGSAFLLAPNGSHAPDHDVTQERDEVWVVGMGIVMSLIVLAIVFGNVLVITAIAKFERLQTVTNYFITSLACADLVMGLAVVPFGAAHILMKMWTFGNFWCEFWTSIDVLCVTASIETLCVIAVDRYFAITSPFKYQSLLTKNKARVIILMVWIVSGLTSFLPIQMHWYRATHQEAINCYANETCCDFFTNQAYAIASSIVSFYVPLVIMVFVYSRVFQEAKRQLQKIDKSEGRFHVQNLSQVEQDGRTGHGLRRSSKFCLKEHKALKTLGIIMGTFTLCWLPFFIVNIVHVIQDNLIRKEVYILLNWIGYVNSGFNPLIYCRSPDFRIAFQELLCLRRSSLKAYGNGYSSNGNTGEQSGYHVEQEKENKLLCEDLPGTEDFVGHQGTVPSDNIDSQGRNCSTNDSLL
HNF4A DNA FP: change in binding of human HNF4 alpha to DNA; HNF4a-FITC DNA binding, fluorescence polarization, 1 h; P41235; 360,000 tested, 0.3% active; activity change, % at 10 µM; in the data active means activity change above about 30%, passing the limit was not always enough;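 further: controls were the assay level and a saturating level of protein; the project sought stronger binding though the title names inhibitors; some compounds called inactive have numbers as strong as hits; positive values seem to mean higher polarization but the record does not say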
Target sequence (P41235 whole entry, looked up): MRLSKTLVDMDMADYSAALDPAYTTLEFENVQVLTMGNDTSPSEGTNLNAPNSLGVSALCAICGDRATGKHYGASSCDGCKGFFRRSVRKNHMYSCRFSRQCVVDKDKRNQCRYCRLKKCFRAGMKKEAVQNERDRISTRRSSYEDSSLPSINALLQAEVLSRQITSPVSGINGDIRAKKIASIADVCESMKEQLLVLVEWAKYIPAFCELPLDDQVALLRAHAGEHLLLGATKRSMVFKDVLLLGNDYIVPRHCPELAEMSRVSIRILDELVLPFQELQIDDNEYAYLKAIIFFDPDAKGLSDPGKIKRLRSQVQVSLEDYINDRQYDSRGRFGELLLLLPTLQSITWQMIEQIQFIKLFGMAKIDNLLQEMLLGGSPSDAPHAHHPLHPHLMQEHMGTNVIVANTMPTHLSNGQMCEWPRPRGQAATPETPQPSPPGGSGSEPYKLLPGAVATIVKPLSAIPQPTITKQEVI
LANA-H2B inh: blocks KSHV LANA binding to histone H2A/H2B | inhibition, % (concentration not given with the values) | Q9QR71 | AID 2629 | cell-free LANA-H2A/H2B peptide, fluorescence polarization | 320,000 tested, 0.6% active; in the data active means inhibition mostly above about 10%, no sharp cut-off; inactive means mostly below about 6.7%;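 further: stock transfer was 7.5 nL into about 10 µL; 0% = median of vehicle wells and 100% = median of positive control wells; one replicate is shown; the record names a cut of 25% in any replicate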
Vif TR-FRET: inhibitors of Vif binding to APOBEC3G peptide, primary screen, biochemical, TR-FRET, GST-Vif 1-94, biotin-A3G peptide, dose response retest (AID 1117319) | TR-FRET GST-Vif / biotin-A3G peptide binding; higher % means a stronger effect; test concentration not given here; strong numbers were not always called active | inhibition, %; hits with a dose series show IC50 in µM | 260,000 tested, 0.57% active;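 active means above the screen mean plus three standard deviations and confirmed in dose response; inconclusive means results disagree or hit not tested in dose response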;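 further: Vif residues 1-94 fused to GST binding biotinylated APOBEC3G peptide 110-148; 0% = full assay without inhibitor and 100% = GST in place of GST-Vif; retest series ran down from 100 µM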
E coli growth: E. coli growth inhibition; Escherichia coli growth, OD600, 23 h; stronger effect = lower value; OD600 absorbance (test concentration not listed); 330,000 tested, 0.21% active; AID 1053175;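 active means OD600 absorbance below the run mean of sample wells minus 3.6 SD, in any replicate, cut at about 0.56 in these data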;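 further: stock transfer was 300 nL into about 60 µL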
UCH37 inh: human UCH37 deubiquitinating enzyme inhibition | purified proteasome/UCH37, Ub-AMC cleavage fluorescence | 330,000 tested, 0.33% active | Q9Y5K5 | inhibition, % (concentration not given with the values);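 active means mean of two replicates above 20%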;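 further: 0% = compound-free wells with enzyme and 100% = wells lacking proteasome; stock transfer was 100 nL into about 20 µL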
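Material: Human UCH37 enzyme supplied as purified proteasome complex | Schedule: 30 min preincubation with enzyme, 25 min cleavage at room temperature | Detection: AMC fluorescence 355/460 nm | Measure: % inhibition of Ub-AMC cleavage fluorescence | Controls: Wells without proteasome as full block, compound-free enzyme plus substrate as uninhibited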
* hit, by the source's call; u = inconclusive; x = no result given.

#1 COc1ccc(/C=C2\SC(=N)N(c3nccs3)C2=O)cc1OC
#2 COCC(=O)N(CCc1ccc(OC)cc1)Cc1nc2ccccc2c(=O)[nH]1
#3 C/C(=N\NS(C)(=O)=O)c1ccccc1
#4 COc1cc2c(cc1C=O)OC(C)C2 (stereo not drawn)
#5 O=C(CNC(=O)N1CC(=O)Nc2ccccc21)NCc1ccccc1
#6 CCOC(=O)CCc1c(C)nc2cc(-c3ccc(Cl)cc3)[nH]n2c1=O
#7 CC1CCCCC1NC(=O)COC(=O)c1ccc2ncsc2c1 (stereo not drawn)
#8 CC(=O)Cn1c2ccccc2n2nc(CCC(=O)O)c(=O)nc12
#9 O=C(CSc1nnc(-c2ccccc2)o1)Nn1cnnc1
#10 Cc1c(C(=O)O)c(=S)sn1CCOc1ccccc1

Screen / compound no.	1	2	3	4	5	6	7	8	9	10
A1 inh	-0.6	-1.2	-1.5	0.3	0.6	-1.3	0.5	-0.1	0.3	x
Beta2AR agonist	19	-1	1	4	11	6	-11	6	-7	-1
HNF4A DNA FP	1.1	-1.8	-1.9	-8.1	-0.1	2.1	-1.1	-5.8	1.0	2.1
LANA-H2B inh	-1.2	-3.2	3.1	2.0	2.4	0.4	-1.6	0.2	-5.5	x
Vif TR-FRET	x	0%	4%	14%	x	-6%	x	-3%	3%	5%
E coli growth	0.68	0.74	x	0.62	0.65	0.73	0.71	0.68	0.64	0.69
UCH37 inh	9.3	-1.1	x	-21	4.5	5.6	1.3	-95	2.4	2.3

#11 Cc1cc(C)cc(NC(=S)NCc2cccs2)c1
#12 CC1CCN(c2ccc(NC(=O)Cc3ccccc3)cc2)CC1
#13 CCOc1ccc(S(=O)(=O)NCc2ccccc2Cl)cc1C(N)=O
#14 O=C(Cc1ccc(Cl)cc1)c1ccc(O)cc1
#15 CCN1CCN(c2ccc(S(=O)(=O)N3CCOCC3)cc2NC(=O)C(C)Oc2ccc(Cl)cc2)CC1 (stereo not drawn)
#16 O=S(=O)(c1ccccc1)N1CCN(C/C=C/c2ccccc2)CC1
#17 Cc1ccc(S(=O)(=O)c2c(C)cc(-c3ccccc3)[nH]c2=O)cc1
#18 O=S(=O)(c1cccc(-c2csc(-c3cccnc3)n2)c1)N1CCCCC1
#19 CCn1cc(C(=O)Nc2ccc(OC)c(S(=O)(=O)N3CCCCC3)c2)c(=O)c2ccc(C)nc21
#20 COc1ccc(CNCC(=O)Nc2sccc2C#N)cc1

Screen / compound no.	11	12	13	14	15	16	17	18	19	20
A1 inh	0.5	0.4	-1.0	-5.8	-0.1	-0.5	-0.1	-0.4	0.8	-0.1
Beta2AR agonist	13	-9	1	-4	10	-1	-16	-9	17	x
HNF4A DNA FP	2.5	10	-4.0	1.1	-0.4	1.1	0.5	0.9	2.8	x
LANA-H2B inh	-8.3	-3.2	0.3	1.3	-2.1	3.0	-5.3	-0.6	-2.5	-1.2
Vif TR-FRET	-10%	5%	6%	-8%	-3%	-16%	-1%	1%	19%	x
E coli growth	0.68	0.71	0.67	0.57	0.68	0.67	0.7	0.73	0.68	0.63
UCH37 inh	1.9	1.5	3.8	3.3	1.0	-0.8	-32	-2.7	2.0	-0.9

#21 O=C1COc2ccc(C(=O)COC(=O)c3ccc4ccccc4n3)cc2N1
#22 COc1ccc(-c2nn(-c3ccccc3)cc2C(=O)O)cc1N
#23 Cc1c2c(nc3c(C)cccc13)OC(C)C2 (stereo not drawn)
#24 CCC(C)c1c(O)nc(SCC(=O)c2ccccc2)[nH]c1=O (stereo not drawn)
#25 CC(C)Cn1c(=O)[nH]c2ccccc21
#26 C/C(CC(=O)Nc1cccc(C(F)(F)F)c1)=N/NC(=O)C(=O)NCCO
#27 Cc1nnsc1C(=O)Nc1cc(Cl)ccc1Cl
#28 S=c1[nH]nc(-c2ccccc2Cl)n1Cc1ccccc1
#29 CCN1C(=O)[C@H]2[C@@H](c3ccc(C)cc3)N3C(=O)N(c4ccc(OC)cc4)C(=O)[C@@]3(CC)[C@H]2C1=O
#30 COc1ccccc1NC(=O)CSc1nncs1

Screen / compound no.	21	22	23	24	25	26	27	28	29	30
A1 inh	0.3	0.4	0.1	0.2	-1.3	0.7	1.2	-0.1	0.3	0.1
Beta2AR agonist	4	-4	-8	6	3	-10	-5	8	-5	1
HNF4A DNA FP	2.5	0.4	3.8	0.6	-0.6	2.7	4.7	1.8	-1.0	-0.2
LANA-H2B inh	-2.3	-1.3	-9.3	1.7	2.1	3.7	-1.8	3.1	1.5	-3.6
Vif TR-FRET	28%	x	15%	-5%	72%	15%	-3%	-1%	x	-9%
E coli growth	0.77	0.63	0.68	0.72	0.63	x	0.7	0.67	x	0.69
UCH37 inh	-0.1	1.9	-7.2	3.6	-1.3	x	5.6	3.1	-2.8	-2.0

#31 CCCCC[C@H]1CN(CCc2ccccc2)C(=O)[C@@H]1CC(=O)NCc1ccc(OC)cc1
#32 O=C(Nc1ccccc1-c1nc2ccccc2[nH]1)c1ccc(N2C(=O)CCC2=O)cc1
#33 Cc1c(C(=O)OCC(=O)NC(C)c2ccccc2)oc2ccccc12 (stereo not drawn)
#34 CN(C)S(=O)(=O)c1ccc(N=Cc2c(C(F)(F)F)[nH]n(C)c2=O)cc1
#35 Cn1nc(-c2ccc(Cl)cc2)c2cc(C(=O)NC3CC3)sc21
#36 O=C(CSc1ccc(-c2ccco2)nn1)Nc1ccc(F)cc1
#37 CN1C(=O)c2ccc(Oc3ccccc3)cc2C1=O
#38 COc1ccccc1NS(=O)(=O)c1cccc(C(=O)NNC(=O)c2ccc(=O)[nH]c2)c1
#39 COc1cc(C2Nc3ccccc3NC3=C2C(=O)CC(c2ccc(OC)c(OC)c2)C3)ccc1O (stereo not drawn)
#40 COCCCN(CC(=O)Nc1ccc(N2CCOCC2)cc1)S(=O)(=O)c1ccccc1

Screen / compound no.	31	32	33	34	35	36	37	38	39	40
A1 inh	1.5	0.3	0.1	1.4	0.6	0.3	0.7	0.1	1.2	-0.3
Beta2AR agonist	-3	-7	2	5	-40	-7	-10	-1	5	0
HNF4A DNA FP	0.0	85*	0.1	1.8	-4.4	0.7	-2.7	5.9	0.2	-2.8
LANA-H2B inh	-1.8	8.8	-1.2	7.9	-4.8	1.7	-4.9	-3.5	-1.4	-3.3
Vif TR-FRET	x	-15%	3%	4%	-4%	x	x	-3%	12%	7%
E coli growth	0.73	0.74	0.72	0.71	0.74	0.66	0.6	0.63	0.72	0.67
UCH37 inh	-3.0	-35	4.5	1.1	-2.7	-0.8	4.2	-3.6	16	2.3

Shown in markdown: part of the list above.
| No. | molecule | A1 inh | Beta2AR agonist | HNF4A DNA FP | LANA-H2B inh | Vif TR-FRET | E coli growth | UCH37 inh |
| --- | --- | --- | --- | --- | --- | --- | --- | --- |
| 38 | COc1ccccc1NS(=O)(=O)c1cccc(C(=O)NNC(=O)c2ccc(=O)[nH]c2)c1 | 0.1 | -1 | 5.9 | -3.5 | -3% | 0.63 | -3.6 |
| 39 | COc1cc(C2Nc3ccccc3NC3=C2C(=O)CC(c2ccc(OC)c(OC)c2)C3)ccc1O (stereo not drawn) | 1.2 | 5 | 0.2 | -1.4 | 12% | 0.72 | 16 |

Other compounds.
#41 c1ccc2[nH]c(SCc3cn4cccnc4n3)nc2c1
#42 CC(=O)N/C(=N/c1nc(C)cc(C)n1)Nc1cccc(C)c1C
#43 COc1cccc(CN(C)C(=S)Nc2ccc(C)c(C)c2)c1
#44 Cc1cc(C)cc(OCCn2ccnc2)c1
#45 COc1ccc(C(=O)COC(=O)/C=C/c2ccccc2[N+](=O)[O-])cc1
#46 COc1ccc(CNC(=O)C2CCN(S(=O)(=O)c3ccc(Br)s3)CC2)cc1
#47 COCCN(C(=O)CSc1nc(-c2ccccc2)cn1N)c1c(N)n(Cc2ccccc2)c(=O)[nH]c1=O
#48 Cc1cc(N(C)C)ccc1[N+](=O)[O-]
#49 Nc1ccc(S(=O)(=O)NC2=NCCCCC2)cc1N
#50 Cc1ccc(S(=O)(=O)CC(=O)c2ccccc2)cc1

Screen / compound no.	41	42	43	44	45	46	47	48	49	50
A1 inh	0.3	-2.0	2.0	2.0	-0.1	0.5	-0.6	-0.2	0.4	0.8
Beta2AR agonist	-13	7	2	4	-1	7	-2	10	0	-8
HNF4A DNA FP	0.3	1.2	3.8	0.4	0.1	2.3	0.5	3.0	-2.7	2.5
LANA-H2B inh	-2.2	-2.5	2.4	-8.0	-4.8	1.7	-10	1.7	1.3	-2.8
Vif TR-FRET	-2%	13%	3%	x	1%	x	-2%	1%	26%	1%
E coli growth	0.66	0.69	0.7	0.69	0.68	0.69	0.67	0.63	0.73	0.69
UCH37 inh	-4.6	0.6	4.7	3.9	5.0	-0.6	0.6	10	0.5	3.5

#51 Cc1[nH]c(C)c(S(=O)(=O)NCc2ccccc2Cl)c1C(=O)N1CCCC1
#52 Cc1cn([C@H](C(=O)NCCCCCCCCCCC(=O)N2CCNCC2)[C@@H](C)O)nn1
#53 COC(=O)CCC(=O)OC1(C)C(=O)C2=CN(Cc3ccccc3)C(c3ccc(OC)cc3)=CC2=C(Br)C1=O (stereo not drawn)
#54 COc1ccc(NC(=O)CCCn2c(=O)c3sccc3n(Cc3ccc(C)cc3)c2=O)cc1
#55 CC(=O)N=c1n(C)c2ccccc2n1CCOc1ccccc1
#56 COc1ccc2[nH]c(=O)c(CN(Cc3cccs3)Cc3nnnn3Cc3ccccc3)cc2c1
#57 CNC(=S)/N=C(\Nc1ccc(C)cc1)c1ccccc1
#58 COc1ccc(S(=O)(=O)N2CCCC(C(=O)NCc3cccnc3)C2)cc1OC (stereo not drawn)
#59 Cc1cc(C)cc(N2C(=O)CC(Sc3ncn[nH]3)C2=O)c1 (stereo not drawn)

Screen / compound no.	51	52	53	54	55	56	57	58	59
A1 inh	-0.2	1.0	-1.2	1.7	-0.2	0.5	0.1	0.3	0.4
Beta2AR agonist	6	6	6	-4	7	-1	-3	-9	-2
HNF4A DNA FP	-2.5	3.5	-1.1	1.3	2.0	4.7	1.1	-0.2	-2.6
LANA-H2B inh	-1.2	-0.6	1.1	3.8	-4.4	2.1	-5.0	5.4	-4.3
Vif TR-FRET	x	x	x	15%	-4%	u	-6%	x	x
E coli growth	0.65	x	0.68	0.75	0.7	0.7	x	0.64	0.72
UCH37 inh	-0.3	7.0	5.5	3.1	-0.7	-12	x	3.0	2.7

Some of these compounds in order of their number in LANA-H2B inh, lowest first:
no. | mol | LANA-H2B inh
57 | CNC(=S)/N=C(\Nc1ccc(C)cc1)c1ccccc1 | -5.0
55 | CC(=O)N=c1n(C)c2ccccc2n1CCOc1ccccc1 | -4.4
59 | Cc1cc(C)cc(N2C(=O)CC(Sc3ncn[nH]3)C2=O)c1 (stereo not drawn) | -4.3
